Bioassay records as filed in PubChem BioAssay.
AID504770 – growth inhibition of E. coli YBA685, primary screen, V. cholerae RctB inhibitors; E. coli YBA685 rctB-dependent plasmid, OD600 growth, 3 h; stronger effect = lower value; z-score (concentration not given with the values); 130,000 compounds, 0.27% hits;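 active means z-score under -2 on both plates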;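 further: wells of about 30 µL received 100 nL stock; score is relative to mean and SD of the test wells; the first replicate is given; strong numbers were not always called active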
Ba CapD inh – Bacillus anthracis CapD inhibitors, primary screen, biochemical, fluorescence intensity; purified CapD enzyme, fluorescence intensity read-out; stronger effect = lower value; some hits fall short of the stated cut; z-score (test concentration not listed); AID 492967, 2010; 140,000 compounds, 0.23% hits;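 active means z-score under -4 in either of two replicates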;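 further: stock transfer was 100 nL into about 40 µL; score is relative to mean and spread of the plate; one replicate is shown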
The depositor's hits bear a star; i = inactive; x = not tested or not shown.

(1) CCS(=O)(=O)CCSc1nc(-c2cccs2)cc(C(F)(F)F)c1C#N
(2) COc1cccc2sc(NCc3ccccc3)nc12
(3) COc1ccc(COc2ncnc3sccc23)cc1F
(4) O=C(CCCn1c(SCc2cc(=O)n3cc(Cl)ccc3n2)nc2ccccc2c1=O)NCc1cccc(Cl)c1
(5) COc1cc(C2C(C#N)=C(N)Oc3n[nH]c(-c4ccc5c(c4)OCO5)c32)ccc1OC(=O)c1ccco1 (centres undefined)
(6) COCC(=O)Nc1ccc(Nc2ccccc2)cc1
(7) O=C(NN1CC(=O)N(C2CCCC2)C1=O)c1cc2c(s1)CCCC2
(8) COc1ccc(OC)c(N2C(=O)NC(=O)C(CCc3ccccn3)(CCc3ccccn3)C2=O)c1

compound no.	1	2	3	4	5	6	7	8
AID504770	x	0.3	-0.5	x	x	-0.15	0.15	0.05
Ba CapD inh	6	-2.4	x	0.66	0.16	0.24	x	-0.29

(9) O=C(O)CNc1nnc(-n2cccc2)s1
(10) CCOC(=O)c1cc(O)c(C(=O)OCC)cc1O
(11) COc1ccc(/C=C(/NC(=O)c2ccco2)C(=O)N2CCCC2=O)cc1
(12) CSc1nc(NS(=O)(=O)c2cc(C(F)(F)F)cc(C(F)(F)F)c2)nn1C
(13) COc1ccc(NC(=O)c2ccc(F)c(F)c2)c2ccccc12
(14) N#CC(c1ccccc1)c1ccccc1C(=O)c1ccccc1 (centres undefined)
(15) CCCCC1(Nc2ccc(C)cc2)C(=O)N(c2ccccc2)N(c2ccccc2)C1=O
(16) Cc1cc(C)c(C)c(C2=NON3N(C(=O)c4ccc(-c5ccccc5)cc4)c4ccccc4N23)c1C

compound no.	9	10	11	12	13	14	15	16
AID504770	-0.1	-0.4	0.6	1.3	0.8	0.4	x	x
Ba CapD inh	-2.1	9.2	-0.37	0.15	-0.49	-1.1	-0.45	-0.3

(17) CCOC(=O)C1=NN(c2cccc(Cl)c2)C2(S1)c1ccccc1C(c1ccc(CC)cc1)=NN2c1ccccc1 (centres undefined)
(18) COc1ccc(OC)c(NC(=O)c2cc3nc(-c4ccc5c(c4)OCO5)cc(C(F)(F)F)n3n2)c1
(19) O=c1c2c(-c3ccc(F)cc3)csc2[nH]c(=S)n1-c1ccccc1
(20) CSc1n[nH]c(NCc2cccs2)n1
(21) CCOC(=O)N/N=C/c1cc(Br)cc(Br)c1O
(22) COc1cc(NC(=O)CCCNC(=O)Cn2cnc3sc4c(c3c2=O)CCCC4)cc(OC)c1OC
(23) CC(N)c1ccncc1 (centres undefined)
(24) Cc1ccccc1S(=O)Cc1ccc(C(=O)N2CCCC2)o1 (centres undefined)

compound no.	17	18	19	20	21	22	23	24
AID504770	x	x	x	-1.1	x	x	-0.7	1
Ba CapD inh	0.085	0.27	-1.2	-0.11	-0.41	-2.1	x	-0.66

(25) CCN1CCN(c2cc(C)c3cc(NC(=O)/C=C/c4ccc(OC)cc4)ccc3n2)CC1
(26) COC(=O)c1scc(S(=O)(=O)c2ccc(Cl)cc2)c1C
(27) N/C(=N\OCc1c(F)cccc1Cl)c1ccc(Cl)cc1
(28) CCCCc1cc2c(c(NC(C)=O)n1)c(=O)oc1ccccc12
(29) O=C(/C=C1\SC(=O)NC1=O)Nc1ccccc1
(30) O=C(CCCCC(=O)Nc1c(I)cc(I)c(C(=O)O)c1I)Nc1c(I)cc(I)c(C(=O)O)c1I
(31) CCN(CC)C(=O)Nc1ccc(NC(=O)N(CC)CC)cc1
(32) Cc1cc(C)c2nc(NC3=NCCCCC3)sc2c1

compound no.	25	26	27	28	29	30	31	32
AID504770	0.2	x	x	1.4	-0.75	x	-1.1	0.2
Ba CapD inh	5.9	-0.045	-0.55	0.31	-1.5	-0.83	x	x

(33) CCOCCCNC(=O)c1cc(S(=O)(=O)N2CC(C)CC(C)C2)ccc1Sc1cccc(Cl)c1 (centres undefined)
(34) N#CCSc1nc2cc(C(F)(F)F)ccc2n1Cc1ccccc1
(35) COc1ccc2c(c1)N(C[C@H](C)CN(C)C)c1ccccc1S2
(36) COc1ccc(C(=O)Oc2c(C)occc2=O)cc1
(37) O=C(Nc1ccn(Cc2ccccc2)n1)c1ccccc1
(38) COc1ccc(OCC(=O)N(Cc2nc(-c3ccccc3)no2)C2CCCCC2)cc1
(39) Cc1ccc(C(=O)N/N=C/c2cn(-c3ccccc3)nc2-c2ccccc2)cc1
(40) O=C(CCC(=O)N1CCCC1)Nc1nc(-c2cc3cc(Br)ccc3oc2=O)cs1

compound no.	33	34	35	36	37	38	39	40
AID504770	x	-0.9	x	0.3	0.45	-1.4	x	0.75
Ba CapD inh	0.83	x	-0.51	x	-0.66	-0.76	0.3	2.1

A different layout for part of the listing above.
Second line of a record: AID504770 | Ba CapD inh
(24) Cc1ccccc1S(=O)Cc1ccc(C(=O)N2CCCC2)o1 (centres undefined)
 : 1 | -0.66
(25) CCN1CCN(c2cc(C)c3cc(NC(=O)/C=C/c4ccc(OC)cc4)ccc3n2)CC1
 : 0.2 | 5.9
(26) COC(=O)c1scc(S(=O)(=O)c2ccc(Cl)cc2)c1C
 : x | -0.045
(27) N/C(=N\OCc1c(F)cccc1Cl)c1ccc(Cl)cc1
 : x | -0.55
(28) CCCCc1cc2c(c(NC(C)=O)n1)c(=O)oc1ccccc12
 : 1.4 | 0.31
(29) O=C(/C=C1\SC(=O)NC1=O)Nc1ccccc1
 : -0.75 | -1.5
(30) O=C(CCCCC(=O)Nc1c(I)cc(I)c(C(=O)O)c1I)Nc1c(I)cc(I)c(C(=O)O)c1I
 : x | -0.83
(31) CCN(CC)C(=O)Nc1ccc(NC(=O)N(CC)CC)cc1
 : -1.1 | x
(32) Cc1cc(C)c2nc(NC3=NCCCCC3)sc2c1
 : 0.2 | x
(33) CCOCCCNC(=O)c1cc(S(=O)(=O)N2CC(C)CC(C)C2)ccc1Sc1cccc(Cl)c1 (centres undefined)
 : x | 0.83
(34) N#CCSc1nc2cc(C(F)(F)F)ccc2n1Cc1ccccc1
 : -0.9 | x
(35) COc1ccc2c(c1)N(C[C@H](C)CN(C)C)c1ccccc1S2
 : x | -0.51
(36) COc1ccc(C(=O)Oc2c(C)occc2=O)cc1
 : 0.3 | x
(37) O=C(Nc1ccn(Cc2ccccc2)n1)c1ccccc1
 : 0.45 | -0.66
(38) COc1ccc(OCC(=O)N(Cc2nc(-c3ccccc3)no2)C2CCCCC2)cc1
 : -1.4 | -0.76
(39) Cc1ccc(C(=O)N/N=C/c2cn(-c3ccccc3)nc2-c2ccccc2)cc1
 : x | 0.3
(40) O=C(CCC(=O)N1CCCC1)Nc1nc(-c2cc3cc(Br)ccc3oc2=O)cs1
 : 0.75 | 2.1

More structures.
(41) COC(=O)c1ccc(COC(=O)c2ccc(OC)c(OC)c2)cc1
(42) COc1ccc(CN2CCCN(Cc3ccc(OC)cc3)C2c2ccc(F)cc2)cc1
(43) COCC(=O)Nc1ccccc1C(N)=O
(44) O=C(CN1C(=O)c2ccccc2C1=O)OCC(=O)c1ccc[nH]1
(45) COc1ccc(Br)cc1C(=O)Nc1ccc(-c2nc3ccccc3o2)c(O)c1
(46) O=C(c1ccc2sc3ccccc3n12)N1CCCC1
(47) O=C(C(Cc1ccccc1)n1cccc1)N1CCN(c2ccccc2)CC1 (centres undefined)
(48) Cc1ccnc2nc(C(=O)OCC(=O)NCc3cccc(Cl)c3)nn12

compound no.	41	42	43	44	45	46	47	48
AID504770	-0.55	0.2	-0.85	-3.2	x	x	-1.2	-0.75
Ba CapD inh	1.2	-0.4	0.16	x	0.02	0.26	0.14	x

(49) C=CCNC(=O)Cn1nnc(-c2ccc(C)cc2)n1
(50) Cc1nc2c(-c3ccccc3)nn(-c3ccccc3)c2s1
(51) O=C(NC(c1ccccc1Cl)c1ccc2cccnc2c1O)c1ccccc1 (centres undefined)
(52) CCN(Cc1ccccc1)C(=O)N1CCOCC1
(53) Cc1onc(-c2ccccc2)c1C(=O)On1c(-c2ccccc2)nc2ccccc2c1=O
(54) CCOC(=O)C1=C(C)N=c2s/c(=C\c3ccc(O)c(OCC)c3)c(=O)n2C1c1ccc(OC)cc1 (centres undefined)
(55) Cc1nc2c(sc3nc4c(cc32)COC(C)(C)C4)c(=O)n1Cc1ccco1
(56) O=C(Nc1cccc(Cl)c1)n1ncc2cc(Cl)ccc21

compound no.	49	50	51	52	53	54	55	56
AID504770	-0.55	0.2	-1.5	-0.3	x	x	-0.5	0.85
Ba CapD inh	x	i	-0.1	0.035	0.17	-0.24	x	0.61

(57) O=C(O)CC1(O)C(=O)N(Cc2ccccc2)c2ccccc21 (centres undefined)
(58) CC(C(=O)c1ccccc1)C1(O)C(=O)Nc2ccccc21 (centres undefined)
(59) O=C(O)COc1c(I)cc(Cl)c2cccnc12
(60) O=C(NCC(=O)N1CCC(N2CCCCC2)CC1)C1CCCCC1
(61) Oc1oc(-c2cccc3ccccc23)nc1/C=N/c1nc2ccc(Br)cc2s1
(62) CN(CC(=O)Nc1ccccc1Sc1ccccc1)C1CCS(=O)(=O)C1 (centres undefined)
(63) CN(C)S(=O)(=O)c1ccc(NC(=O)c2ccccc2S(C)(=O)=O)cc1
(64) C/C(O)=C/C(=O)Nc1cccc(C(F)(F)F)c1

compound no.	57	58	59	60	61	62	63	64
AID504770	-0.65	2	-0.15	-0.8	x	-0.8	x	-0.25
Ba CapD inh	0.26	x	x	-0.12	-0.15	x	0.065	-0.82

(65) CCOc1ccc(C2C(C#N)=C(N)N(c3cccc([N+](=O)[O-])c3)C3=C2C(=O)CC(C)(C)C3)cc1 (centres undefined)
(66) O=C(c1cccc2c1C(=O)N(Cc1cccnc1)C2)N1CCN(c2ccccc2)CC1
(67) CCOC(=O)C1=C(C)N=c2s/c(=C/c3ccc(N(CC)CC)o3)c(=O)n2C1c1cc(OC)ccc1OC (centres undefined)
(68) Cc1ccc(NC(=O)Cn2c(C)c3cnn(-c4ccccc4)c(=O)c3c2C)cc1
(69) COc1ccccc1C(=O)Oc1nnc2c3ccccc3cnn12
(70) Cc1cc(C(=O)Cn2cnnc2C#N)c(C)n1-c1ccc(OC(F)(F)F)cc1
(71) CC1CCCN(C(=O)CCNS(=O)(=O)c2ccc3c(c2)c(=O)n(C)c(=O)n3C)C1 (centres undefined)
(72) CC(C)C(NC(=O)c1ccc(F)cc1)C(=O)Oc1ccc(F)cc1 (centres undefined)

compound no.	65	66	67	68	69	70	71	72
AID504770	x	-0.55	x	-0.1	-0.35	-0.7	0.35	0.2
Ba CapD inh	-0.02	-0.2	-0.61	-0.28	x	x	0.38	-0.55

(73) O=C1C=CC(=O)N1c1ccccc1F
(74) COc1ccc(-c2nc3ccc(C(=O)O)cc3nc2-c2ccc(OC)cc2)cc1
(75) CC(C)(C)C(=S)Nc1cccc(Cl)c1
(76) CC(C)n1cc(C(=O)N(C2CC2)C(C(=O)NC2CCCC2)c2ccccc2)cn1 (centres undefined)

compound no.	73	74	75	76
AID504770	-4.7*	x	0.45	1.8
Ba CapD inh	x	24	0.54	x
